Screens as filed in PubChem.
N370S GC – inhibits or activates N370S mutant glucocerebrosidase; P04062; N370S GC spleen homogenate, 4MU-glucoside fluorescence; Potency, µM (titrated, usually from 59.4 µM), for inactives: top-dose activity change, negative = inhibition, hits mostly inhibitors; 330,000 tested, 0.092% active; AID 2101;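 also: 0% = full enzyme activity and -100% = no enzyme basal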
FEN1 inh – human FEN1 inhibition | 390,000 tested, 0.35% active | Recombinant FEN1 flap cleavage, fluorescence, 15 min | P39748 | Potency, µM (top dose mostly 114 µM), inactives show at the highest dose activity change, negative = inhibition, usual class: inhibitors | AID 588795; also: nearly all actives have a fitted effect of over 65% in size
Target sequence (P39748 whole entry, looked up): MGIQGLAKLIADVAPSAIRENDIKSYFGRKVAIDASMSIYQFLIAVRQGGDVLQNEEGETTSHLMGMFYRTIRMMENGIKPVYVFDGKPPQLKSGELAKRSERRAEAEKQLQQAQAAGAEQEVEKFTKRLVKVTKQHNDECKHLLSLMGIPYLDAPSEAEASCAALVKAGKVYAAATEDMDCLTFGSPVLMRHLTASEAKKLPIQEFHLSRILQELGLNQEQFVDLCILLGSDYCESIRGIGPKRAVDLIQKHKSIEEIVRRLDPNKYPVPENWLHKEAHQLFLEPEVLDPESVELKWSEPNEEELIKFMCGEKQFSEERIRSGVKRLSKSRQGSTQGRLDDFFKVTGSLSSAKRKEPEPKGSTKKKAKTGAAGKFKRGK
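Reaction started by adding substrate (50 nM final) to 10 nM enzyme after 15 min room-temperature compound preincubation. Reads at 0 and 15 min, with data normalized and fitted to a four-parameter Hill equation.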
* = called active by the depositor; ? = inconclusive; · = not tested or not shown; & = joins results of further samples; [ ] = remark or other dose. Calls follow the shape of the dose curve; as a rule, active = well fitted curve in the direction sought with a large enough effect; inconclusive = small, poorly fitted or top-dose-only effect, or another doubt; inactive = no such curve, though single readings can be large; an effect the other way counts as inactive or inconclusive. Unless noted, % is scaled to controls: 0 for no effect and ±100 for the full control effect; potency is read from the fitted curve at half-maximal effect. A portion of the library, and most or all hits are left out here.

Below each compound – N370S GC, FEN1 inh
COC(=O)CCC(=O)OC1(C)C(=O)C=C2C=C(C3CC3)N(CCCOC(C)C)C=C2C1=O (centres undefined)
  1%[12.8 µM], 0%
COc1cccc(C(=O)N/N=C(/c2ccccc2)c2ccccn2)c1
  ?, 3%
COc1cc(Nc2nc(SCc3ccc(Cl)cc3)nc3ccccc23)cc(OC)c1
  ·, -14%
Cc1onc(C(=O)Nc2ccc(OC(F)(F)F)cc2)c1[N+](=O)[O-]
  -5%, -3%
Cc1nnc2ccc(-c3cccc(NS(=O)(=O)c4ccccc4Cl)c3)nn12
  -8%, -3%
CC(C)(C)OC(=O)C[C@@H]1C/C=C\C[C@@H](CC(=O)N[C@H](CO)Cc2ccccc2)C(=O)N2CCC[C@@H]2COC1=O
  ·, -5%
COc1ccc(-c2c(C(F)(F)F)oc3c(CN4CCN(C)CC4)c(O)ccc3c2=O)cc1
  -12%, -2%
COc1cc(OC)cc(C(=O)OCc2cc3ccccc3[nH]c2=O)c1
  -19%, -7%
COCCCNC(=O)c1c(NC(=O)C2COc3ccccc3O2)sc2c1CCCC2 (centres undefined)
  17%, -6%
CCCn1c(CC)nc([N+](=O)[O-])c1S(=O)(=O)c1ccccc1
  -2%, 6%
CCN(CC)C(=S)Nc1ccc2nc3n(c(=O)c2c1)CCCCC3
  -2%, 6%
CCC(C)NC(=O)CCCCCn1c(=O)[nH]c2cc(OC)c(OC)cc2c1=O (centres undefined)
  7%, -15%
O=C(Cn1cccc(C(F)(F)F)c1=O)c1ccc(Cl)cc1
  0%, 0%
COC(=O)NNC(=O)COc1ccc2ccccc2c1Br
  0%, 4%
CC(C)(C)OC(=O)N1CCC(c2c(C(=O)O)cnn2-c2ccccc2)CC1
  1%, -1%
O=C(O)C1CC=CCC1C(=O)Nc1cccnc1 (centres undefined)
  3%, 1%
COc1cc(OC)cc(C(=O)NC(=S)N2CCCCCC2)c1
  8%, -4%
CCNC(=O)CSc1nnc(-c2ccccc2)n1-c1ccc(OCC)cc1
  7%, 11%
CN1CCCN(CC(O)COCc2cccs2)CC1 (centres undefined)
  -4%, -1%
O=C(Cc1nnc(NC(=O)c2cccc([N+](=O)[O-])c2)s1)NCc1ccccc1
  -17%, -1%
COc1cccc(C2=NOC(C(=O)NCc3ccccn3)C2)c1 (centres undefined)
  3%, -5%
Cc1ccc(S(=O)(=O)/N=C/c2ccco2)cc1
  3%, 1%
O=C(COc1ccccc1F)NNC(=O)c1cc(Br)ccc1Cl
  ·, -1%
CC(=O)Nc1sc2c(c1C(c1ccc(F)cc1)N1CCOCC1)CCCC2 (centres undefined)
  ·, -7%
O=C(O)COc1ccccc1/C=N/NC(=O)CNC(=O)c1ccco1
  -5%, -5%
COC(=O)N1[C@H](Cc2ccccc2)C=C[C@]1(C)C(=O)O
  11%&-2%, 11%
COc1ccc2c(CC(=O)Nc3ccc(N4CCOCC4)cc3)coc2c1
  -1%, -4%
COC(=O)c1ccccc1NC(=O)CN1CCC(NC(=O)c2ccccc2C)CC1
  1%, -4%
CC(CN1CCCC1)OC(=O)c1ccc(Cl)cc1Cl (centres undefined)
  -22%, 17%
Cc1ccc(C2=NCCn3c2c2ccccc2[n+]3[O-])cc1
  -14%, -13%

Structures listed so far that contain a COOH group, in the order listed:
Below each compound – N370S GC, FEN1 inh
CC(C)(C)OC(=O)N1CCC(c2c(C(=O)O)cnn2-c2ccccc2)CC1
  1%, -1%
O=C(O)C1CC=CCC1C(=O)Nc1cccnc1 (centres undefined)
  3%, 1%
O=C(O)COc1ccccc1/C=N/NC(=O)CNC(=O)c1ccco1
  -5%, -5%
COC(=O)N1[C@H](Cc2ccccc2)C=C[C@]1(C)C(=O)O
  11%&-2%, 11%

Compound profiles, as listed above. Order of values: N370S GC	FEN1 inh
O=C(Cn1cccc(C(F)(F)F)c1=O)c1ccc(Cl)cc1 is listed as 0%	0%
CCN(CC)C(=S)Nc1ccc2nc3n(c(=O)c2c1)CCCCC3 is listed as -2%	6%
CC(CN1CCCC1)OC(=O)c1ccc(Cl)cc1Cl (centres undefined) is listed as -22%	17%

Going on with the list.
Below each compound – N370S GC, FEN1 inh
C=CCN(CC=C)C(=O)c1cccc(OC2CCN(S(=O)(=O)N(C)C)CC2)c1
  0%, -3%
COc1ccc(C)cc1Cn1nnc2ccccc21
  0%, -14%
O=C(NC1CCCCCC1)c1cc(S(=O)(=O)N2CCCCC2)ccc1N1CCOCC1
  27%, -3%
C/C(=N\OC(=O)Nc1ccc(Cl)cc1)c1ncc(C(F)(F)F)cc1N1CCOCC1
  ?, -6%
COC(=O)c1ccc(NC(=O)C2CCCN(S(=O)(=O)c3cnc[nH]3)C2)cc1 (centres undefined)
  -10%, -14%
CCC(C)CCCCC(=O)NC(CCN)C(=O)NC(C(=O)NC(CCN)C(=O)NC1CCNC(=O)C(C(C)O)NC(=O)C(CCN)NC(=O)C(CCN)NC(=O)C(CC(C)C)NC(=O)C(Cc2ccccc2)NC(=O)C(CCN)NC1=O)C(C)O (centres undefined)
  -11%, ·
CC(C)CO/N=C1/C[C@@H](O)[C@@H](O)[C@@H]2[C@@H]3C(=O)N(Cc4ccc5c(c4)OCO5)C(=O)[C@H]3CC[C@@H]12
  8%[12.8 µM], ·
O=c1c(-c2ccc(O[C@@H]3O[C@H](CO)[C@@H](O)[C@H](O)[C@H]3O)cc2)coc2cc(O)cc(O)c12
  -9%, ·
Cn1c(N)c(C(=O)COC(=O)CSc2ccc3ccccc3c2)c(=O)n(C)c1=O
  10%, -23%
CN1CCN(NC(=O)Nc2cccc(F)c2)CC1
  -2%, -17%
COc1ccccc1C(=O)N1CCN(CCc2ccccc2)CC1
  -1%, -7%
COc1ccc(NC(=O)CCCn2c(=O)c3sccc3n(Cc3ccccc3)c2=O)cc1
  1%, 4%
CC1=CCC2C(=O)N(c3ccc(OC(=O)c4ccco4)cc3)C(=O)C2C1 (centres undefined)
  -2%, 17%
COc1ccc(-c2c(C(F)(F)F)nn(C)c2NC(C)=O)cc1
  -4%, -3%
CCOc1ccc(-c2nnc(N(CC)C(=O)C3CCC3)s2)cc1
  2%, -6%
CCc1noc(C)c1C(=O)N1CCC(CCC(=O)Nc2cccc(C)c2)CC1
  -15%, 0%
Cc1ccsc1C(=O)OCc1csc(-c2ccccc2)n1
  19%, -11%
CC(C)N1CCc2c(sc(NC(=O)c3ccco3)c2C(N)=O)C1
  7%, -16%
CN1CCc2c(sc3c2C(=O)NC(c2cccs2)N3)C1 (centres undefined)
  16%, -19%
CCOC(=O)C1(CCc2ccccc2)CCN(C(=O)CN2C(=O)CSC2=O)CC1
  10%, 0%
CCN(C(=O)CSc1nc2ccccc2n1CC(=O)N1CCCC(C)C1)c1ccccc1 (centres undefined)
  ·, 11%
CN(C(=O)CSc1nnc(-c2ccncc2)n1-c1ccccc1)C1CCS(=O)(=O)C1 (centres undefined)
  -17%, -6%
O=C(COC(=O)CNS(=O)(=O)c1ccc(F)c(F)c1F)NC1CC1
  -3%, 10%
COc1ccc(-c2csc(NC(=O)C3CCCCN3S(=O)(=O)c3ccccc3)n2)cc1 (centres undefined)
  5%, -19%
c1ccc(SCCc2ccncc2)cc1
  8%[12.8 µM], -6%
CCc1nnc(SCc2ccc(F)cc2Cl)c2cc3sc(C)cc3n12
  ·, -5%
CC(=O)Oc1cc2oc(=O)cc(C)c2cc1OC(C)=O
  ?, -1%
COc1cc(/C=C/C(=O)c2c(O)ccc3c(C)cc(=O)oc23)ccc1O
  1%, -3%&4%
COc1ccc(-n2c(SC(C)C(=O)Nc3ncc(Cl)cc3Cl)nc3ccccc32)cc1 (centres undefined)
  26%, -8%
CCOC(=O)C1CCN(S(=O)(=O)c2ccc(-c3ccc(=O)[nH]n3)o2)CC1
  -12%, -3%

The results go on:
Below each compound – N370S GC, FEN1 inh
CCC(C)NC(=O)c1ccc(CSCc2cccc(F)c2)o1 (centres undefined)
  10%, -11%
CCCS(=O)(=O)N1CCN(c2ccccc2F)CC1
  9%, 13%
CC1CN(c2cc(=O)n(-c3ccc(Cl)cc3)c(=O)[nH]2)CC(C)O1 (centres undefined)
  10%, -13%
CCOC(=O)Cc1csc(NC(=O)CSc2cc(Cl)ccc2Cl)n1
  -25%, -1%
Cc1cccc(NC(=S)N(CCN(C)C)Cc2cc3cc(C)ccc3[nH]c2=O)c1
  -10%, 11%
CC(=O)N(Cc1cccs1)Cc1cc2cc(C)c(C)cc2nc1Cl
  8%, 7%
Cc1ccc(S(=O)(=O)n2ccc(-c3cccc(OCc4c(F)cccc4Cl)c3)n2)cc1
  14%, 1%
CCn1nc(C)c(CN2CCC(n3nccc3NC(=O)Cc3ccccc3)CC2)c1C
  -6%, -3%
Cc1ccnc(NC(=O)C2CCCN(S(=O)(=O)c3cnc[nH]3)C2)c1 (centres undefined)
  -17%, -6%
CCCCN1C(=O)CCC(C(=O)O)C1c1ccccc1 (centres undefined)
  6%, -5%
O=C(Nc1ccnn1C1CCN(C(=O)c2cccc(Cl)c2)CC1)C1CC1
  0%, 2%
CCC(C)c1ccccc1OCCn1ccnc1 (centres undefined)
  5%, -1%
Cc1cc(O)cc2c(=O)c3ccccc3sc12
  2%, -19%
O=C(NCCN1CCN(c2ccccc2)CC1)c1ccc2c(c1)[nH]c(=S)n1c3ccccc3nc21
  0%, 11%
CCOc1ccc(C(=O)NCCn2cc(SCC(=O)Nc3cc(C)on3)c3ccccc32)cc1
  ?, -15%
COC(=O)c1cc(Br)ccc1NC(=O)Nc1ccccc1
  5%, 1%
O=C(c1ccc2c(c1)OCO2)N1CCC2(CC1)Oc1ccc(F)cc1C(=O)C21CC(c2ccccc2)=NO1 (centres undefined)
  1%, -16%
COCCC(=O)N1CCC(n2nccc2NC(=O)c2ccccc2C)CC1
  0%, -12%
CC(=O)C(Cc1ccccc1)NC(=O)COC(=O)c1cccc(C)c1[N+](=O)[O-] (centres undefined)
  ·, 1%
COc1c(CC(=O)c2cc3c(cc2O)OC(C)(C)C(O)C3)ccc2c1C=CC(C)(C)O2 (centres undefined)
  8%, ·
NC(=O)c1nn(-c2ccccc2)nc1NC(=O)CN1CCCCC1
  4%, -1%
Cc1cc(C)c(NC(=S)N(Cc2cccnc2)Cc2ccco2)c(C)c1
  17%, 3%
COc1ccc(CC(=O)N/N=C/c2ccc(-c3cccc(C(=O)O)c3)o2)cc1OC
  -22%, -22%
O=C(NC1CCCCC1)N1CCCC1
  -5%, -2%
CC(C)CN(C(=O)COC(=O)C1c2ccccc2Oc2ccccc21)C1CCS(=O)(=O)C1 (centres undefined)
  -9%, -21%
COc1cccc(CNC(=O)C(=O)Nc2c3c(nn2-c2ccccc2)CSC3)c1
  ·, -13%
CCN(CC)Cc1c(O)ccc2occ(C(=O)c3ccc(OC)cc3)c12
  1%, 0%
CC12COC3(C(=O)Nc4cccnc4)CC1CCC32C (centres undefined)
  8%, 0%
O=C(Cc1ccccc1Cl)N1CCOCC1
  0%, 19%
COc1cc(C)c(C(=O)Oc2cc(C)c(C(=O)O)c(O)c2C)c(OC)c1C
  17%&6%, 7%

Additional records follow.
Below each compound – N370S GC, FEN1 inh
CCOC(=O)C(C)/C(C)=N/NC(=O)c1cc2ccccc2cc1O (centres undefined)
  -28%, -8%
CCCCc1ccc(CC(=O)O)cc1
  9%, -2%
O=S(=O)(c1cc(C(F)(F)F)ccc1Cl)N1CCN(c2ccccn2)CC1
  -2%, 5%
COC(=O)[C@@]12CCCCN1[C@H](c1ccc(-c3ccc(F)cc3)c(OC)c1)[C@@H]1C(=O)N(C)C(=O)[C@@H]12
  -8%, -27%
O=C(CNC(=O)c1ccccc1)NCC1COc2ccccc2O1 (centres undefined)
  13%, 20%
CC1(C)C[C@@H](O)[C@]2(C)CC[C@]3(C)C(=CCC4[C@@]5(C)CC[C@H](O)[C@](C)(CO)C5CC[C@]43C)[C@@H]2C1 (some centres undefined)
  ·, -2%
CC1(C)C=CC(=O)[C@]2(C)C1CC(=O)[C@]1(C)C2CC[C@@]2(C)C(c3ccoc3)OC(=O)C3OC321 (some centres undefined)
  -13%, ·
Cc1cccc(-n2c(-c3csc4ccccc34)n[nH]c2=S)c1
  -17%, -15%
COc1ccccc1N1CCN(C(CNS(=O)(=O)c2ccccc2)c2ccccc2)CC1 (centres undefined)
  -5%, -23%
N#CCCn1nnc(-c2ccccc2F)n1
  -2%, 11%
CCOc1cc(C(=S)N2CCOCC2)ccc1OC(=O)c1ccc(C)cc1
  14%, 7%
O=C(NC[C@@H]1CCCO1)c1cccc2c1C(=O)c1ccc(N3CCOCC3)cc1S2(=O)=O
  ·, 2%
Cc1cc(-c2ccco2)n(-c2ccccc2)n1
  3%, 4%
C=CCn1c(=N)n(CC(=O)O)c2ccccc21
  -5%, -2%
O=C1CCC[C@@H](C(C(=O)OCc2ccccc2)C(=O)OCc2ccccc2)C1
  -11%[12.8 µM], ·
O=C(C1CC(=O)N(c2ccc(Cl)cc2)C1)N1CCCCCC1 (centres undefined)
  -3%, -1%
Cn1c(=N)n(CC(=O)O)c2ccccc21
  7%, 15%
O=C1CC(c2ccc(F)cc2)Cc2nc(NCc3ccco3)ncc21 (centres undefined)
  2%, 2%
Cc1c(C(=O)N/N=C/c2ccc(N3CCOCC3)cc2)nc2ccccn12
  -8%, -16%
